Assay outcomes as filed in PubChem.
BmaI1: BmaI1 acyl-homoserine lactone synthase inhibition – biochemical, fluorescence intensity, with counterscreen (AID 720554); hit rate 0.4% among 12,000; BmaI1 enzyme assay, fluorescence intensity; active compounds read high; test concentration not given here; a few actives read low; strong numbers were not always called active; inhibition, %;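 active means both replicates within 2 robust z-scores of the inhibited control and a quiet counterscreen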;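 further: 0% = uninhibited enzyme and 100% = inhibited control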
BmaI1 counterscreen: further read-out of BmaI1, marked with its call; inhibition, %; measured here: counterscreen; design of the counterscreen not given here;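 first of two replicates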
Numbers without * were called inactive. These rows are one share of the data; count on the stated rates, not on these rows.

| smiles | BmaI1 | BmaI1 counterscreen |
| --- | --- | --- |
| COC(=O)/C(=C(/O)CSc1nnnn1C)c1nc2ccccc2[nH]1 | 16 | 10 |
| CCSc1nnc(NC(=O)c2ccc(=O)n(C)n2)s1 | 0 | -6 |
| CCCCCn1c(SCC(=O)N2CCC(C(=O)O)CC2)nc2ccccc21 | 8 | 6 |
| O=C(COC(=O)C12CC3CC(CC(O)(C3)C1)C2)c1ccc(Cl)cc1 | 0 | -4 |
| CCCC1=C(C(=O)OC)C(c2ccc(C(=O)OC)cc2)NC(=O)N1C (configuration not stated) | 8 | 0 |
| Cc1cnc(NC(=O)CCCSc2ccccc2)s1 | 4 | 5 |
| Cc1cccc(N2CC(C(=O)OCn3nnc4ccccc4c3=O)CC2=O)c1C (configuration not stated) | 8 | 10 |
| Cn1cccc1CC(=O)N1N=CCC1(O)C(F)(F)F (configuration not stated) | -28 | -37 |
| CCCSc1nnc(-c2cccc(S(=O)(=O)N(C)C)c2)n1-c1cccc(OC)c1 | 10 | 6 |
| CCOc1ccc(S(=O)(=O)N/N=C(\C)c2ccc3c(c2)OCO3)cc1 | 20 | 16 |
| CCOc1cc(CN2CCN(C)CC2)ccc1OCC(=O)Nc1cccc(C(F)(F)F)c1 | 24 | -4 |
| Cc1noc(C)c1CN1c2cccc3cccc(c23)S1(=O)=O | 0 | -2 |
| Cc1noc(C)c1/C=C/C(=O)O | 14 | 11 |
| c1ccc(OCCOc2ncnc3ccccc23)cc1 | -2 | -7 |
| CCN(C(=O)CN1CCCCC1)c1c(N)n(Cc2ccccc2)c(=O)[nH]c1=O | 15 | 6 |
| Cc1nc(C)c2c(c1C(F)(F)F)-c1ccccc1C2(F)F | 4 | 2 |
| O=C(OCN1C(=O)c2ccccc2C1=O)C1CCCN1S(=O)(=O)c1ccc(Cl)cc1 (configuration not stated) | 4 | 4 |
| COCCn1c(SCC(=O)NN2C(=O)NC(C)(c3ccccc3)C2=O)nc2ccccc21 (configuration not stated) | 4 | 7 |
| O=C(COC(=O)/C=C/c1ccco1)Nc1nc(-c2ccccc2)cs1 | -6 | -6 |
| CCn1c(SCC(=O)N2CCc3ccccc32)nc2cc(S(=O)(=O)N3CCCCC3)ccc21 | 16 | 2 |
| COc1ccc(C(=O)COC(=O)c2cccc(-n3cnnn3)c2)c(OC)c1 | 0 | 2 |
| CC1Cc2ccccc2N1C(=O)CNc1cc(C(F)(F)F)ccc1N1CCOCC1 (configuration not stated) | 9 | 0 |
| CCCc1nc2c3ccccc3ncn2n1 | 10 | 1 |
| CCOC(=O)NN=C(C1CC1)C1CC1 | 36 | 14 |

Six compounds drawn at random from those above, as already listed:
| smiles | BmaI1 | BmaI1 counterscreen |
| --- | --- | --- |
| CCCc1nc2c3ccccc3ncn2n1 | 10 | 1 |
| CCN(C(=O)CN1CCCCC1)c1c(N)n(Cc2ccccc2)c(=O)[nH]c1=O | 15 | 6 |
| Cc1nc(C)c2c(c1C(F)(F)F)-c1ccccc1C2(F)F | 4 | 2 |
| COCCn1c(SCC(=O)NN2C(=O)NC(C)(c3ccccc3)C2=O)nc2ccccc21 (configuration not stated) | 4 | 7 |
| CCn1c(SCC(=O)N2CCc3ccccc32)nc2cc(S(=O)(=O)N3CCCCC3)ccc21 | 16 | 2 |
| c1ccc(OCCOc2ncnc3ccccc23)cc1 | -2 | -7 |

Going on with the list.
| smiles | BmaI1 | BmaI1 counterscreen |
| --- | --- | --- |
| CC(C)(C)NC(=O)NC(=O)Cn1c(NCCO)nc2ccccc21 | 12 | 5 |
| CCCn1c(C)cc(CNCCSCc2cccs2)c1C | -4 | -12 |
| Cc1[nH]nc2c1C(Cc1ccccc1)C(C#N)=C(N)O2 (configuration not stated) | 48 | 0 |
| CN(C)C1C(=O)C(C(N)=O)=C(O)C2(O)C(=O)C3=C(O)c4c(O)ccc(Cl)c4C(O)C3CC12 (configuration not stated) | -50 | -61 |
| CC1Cc2ccccc2N1C(=O)CSc1nncn1-c1ccccc1 (configuration not stated) | 8 | 6 |
| Cc1ccc(Cn2ccsc2=NC(=O)COC(=O)C2=COCCO2)cc1 | 24 | 12 |
| Cc1ccc2c(COC(=O)Cc3n[nH]c(=O)c4ccccc34)cc(=O)oc2c1 | 14 | 9 |
| O=C(CSc1nnnn1-c1ccc(O)cc1)c1ccc2c(c1)OCCO2 | 0 | -8 |
| Cc1ccnc2nc(C(=O)NN3C(=O)c4ccccc4C3=O)nn12 | 4 | -3 |
| COc1ccc2c(C=Nc3ccccc3F)c(O)n(C)c(=O)c2c1 | 18 | 12 |
| CCC(c1nnc(SCC(=O)NCC(F)(F)F)n1Cc1ccccc1)N(C)C (configuration not stated) | 10 | 6 |
| CC(C)(C)c1ccc(S(=O)(=O)N2CCN(Cc3cc4c(cc3O)OCO4)CC2)cc1 | 10 | 4 |
| Oc1ccc2ccccc2c1C=NC1CC1 | -4 | -5 |
| Cc1c(N=Nc2cnc(NC(=O)c3ccccc3)s2)c(=O)n(-c2ccccc2)n1C | 8 | 10 |
| CCOC(=O)C1CCN(C(=O)COC(=O)c2cccnc2Nc2ccccc2F)CC1 | 12 | 7 |
| Cc1ccc(-c2nc(N)sc2CC(=O)OCC(=O)N2CCOCC2)cc1 | 12 | 3 |
| Clc1ccc(Oc2cnccn2)c2ccccc12 | 12 | 8 |
| O=C(CSc1ncccn1)Nc1ccc2c(c1)CCC2 | 12 | 10 |
| C=CCn1c(SCC(=O)N2CCNC2=O)nc2scc(C3CC3)c2c1=O | 16 | 7 |
| CC(Sc1nnc(-c2cccnc2)n1N)C(=O)Nc1ccc2c(c1)OCCO2 (configuration not stated) | 2 | -2 |
| CN(C)C(=O)c1ccc(NCc2cc(=O)oc3cc(O)ccc23)cc1 | 10 | -2 |
| C[C@H](CCC(=O)O)[C@H]1CC[C@H]2[C@@H]3C(=O)C[C@@H]4CC(=O)CC[C@]4(C)[C@H]3CC(=O)[C@]12C | -6 | 8 |
| COc1ccc(CNC(=S)NC(C)C)cc1OC | 6 | 12 |
| CCc1cccc(NC(=O)CN(C)Cc2ccccc2OC)c1 | 3 | -6 |
| COc1cc2c(cc1OC)C(c1ccccc1C(=O)O)=NCC2 | 10 | 4 |
| CCOc1ncccc1C(=O)N1CCN(C(c2ccccc2)c2ccccc2)CC1 | 12 | 12 |
| Cc1nnc(SCC(=O)N2CCOCC2)n1/N=C/c1ccc(Cl)cc1 | -3 | -2 |
| CCS(=O)(=O)N1Cc2ccccc2CC1C(=O)N1CCc2ccccc21 (configuration not stated) | 7 | 8 |
| CCN(CC1COc2ccccc2O1)C(=O)Cc1coc2cc3c(cc12)CCC3 (configuration not stated) | 10 | -4 |
| CC1CCC(C(C)C)C(OC(=O)CSc2nccc(=O)[nH]2)C1 (configuration not stated) | 10 | 6 |
| CC(C(=O)Nc1ccc(S(=O)(=O)N2CCCC2)cc1)N1CCc2ccccc2C1 (configuration not stated) | 8 | 10 |
| Cc1cc(C(=O)Cn2cnc3ccsc3c2=O)c(C)n1CCC1=CCCCC1 | 18 | 2 |
| Cc1nn(-c2ccccc2)c2sc(C(=O)N3CCN(C(=O)c4ccccc4)CC3)cc12 | 14 | 1 |
| NC(=O)COC(=O)/C=C/c1ccc(Cl)cc1 | -2 | -1 |
| CCCCn1c(N)c(N(C(=O)c2ccc(Cl)c(Cl)c2)C2CCCC2)c(=O)[nH]c1=O | -16 | -10 |
| C=C(C)CN(CC)C(=O)CSc1nnc(Cc2cccc3ccccc23)n1N | -4 | 2 |
| CC(C)(CNC(=O)c1cc(=O)[nH]c2ccccc12)N1CCOCC1 | 11 | 5 |
| OC(Cn1cncn1)(Cn1cncn1)c1ccc(F)cc1F | -6 | 2 |
| O=C(COC(=O)c1c2c(nc3ccccc13)CCCC2)NCc1ccco1 | 20 | 10 |
| CO/N=C/C1=C(Sc2nc3ccccc3s2)CCCC1 | 22 | 16 |
| CC(Sc1nc2c(n1-c1ccccc1)CCCC2)C(=O)Nc1ccc(S(N)(=O)=O)cc1 (configuration not stated) | 36 | -7 |
| CC(NC(=O)Cc1ccsc1)c1ccc(S(N)(=O)=O)cc1 (configuration not stated) | 12 | 4 |
| Cc1cccnc1NC(=O)c1ccc(S(=O)(=O)N2CCCCC2)cc1 | 15 | 5 |
| COC(=O)c1ccc(CSc2ccc(S(=O)(=O)N3CCCC3)cn2)o1 | 22 | 4 |
| Cc1noc(N)c1C(=O)OCc1ccc(COC(=O)c2c(C)noc2N)cc1 | 22 | 7 |
| COc1ccc(Br)cc1-c1nc(COC(=O)c2ccc(C)o2)cs1 | 2 | -2 |
| CCCCn1nnnc1CSc1nc2cc(Cl)ccc2n1Cc1ccccc1 | -8 | -8 |
| CC(C)(CNC(=O)c1cc(Cl)c(O)c(Cl)c1)N1CCOCC1 | 2 | 0 |
| c1ccc(CCNc2nsc3ccccc23)cc1 | 46 | 8 |
| CC1(C)CC2CC(C)(CN2C(=O)COC(=O)c2ccc3c(c2)S(=O)(=O)N=C2CCCCCN23)C1 (configuration not stated) | 2 | 2 |
| COc1ccccc1OC(=O)c1ccc(SC)cc1OC | 21 | 6 |
| Cc1nn(-c2ccc(Cl)cc2)c2sc(C(=O)OCC(=O)N3CCNC3=O)cc12 | 11 | 4 |
| CC(C)(C)OC(=O)N1CCC(C(=O)OCC(=O)Nc2ccc(F)cc2)CC1 | 14 | 14 |
| CCCSc1nnc(-c2ccc(Cl)cc2)n1Cc1ccco1 | 38 | 6 |
| Cn1c(SCC(=O)N2CC(=O)Nc3ccccc32)nnc1C(F)(F)F | 16 | 6 |
| CC1(C)Cc2cccc(OCC(=O)Nc3cccnc3)c2O1 | -8 | -10 |
| COc1ccc(CN(C)C(=O)Cc2c[nH]c3ccccc23)c(OC)c1OC | 12 | 4 |
| N#Cc1cccc(OCC(=O)C23CC4CC(CC(C4)C2)C3)c1 | 16 | 12 |
| CC(NCc1ccc(Cl)cc1)=C(C#N)C#N | 0 | 6 |
| CCN(Cn1ncn(C)c1=S)C1CCCCC1 | 36 | 28 |

Next section:
| smiles | BmaI1 | BmaI1 counterscreen |
| --- | --- | --- |
| CN(CC(=O)Nc1ccccc1SCC#N)c1ccccc1 | 9 | -4 |
| c1coc(-c2nnc(-c3ccco3)nn2)c1 | 0 | 34 |
| Oc1c(C(c2ccccn2)N2CCN(c3ccc(F)cc3)CC2)cc(Cl)c2cccnc12 (configuration not stated) | 0 | -14 |
| COC(=O)c1ccc(CSc2nnc(SC(C)C(=O)c3ccc(F)cc3)s2)o1 (configuration not stated) | 7 | -7 |
| O=C1CCc2cc3c(cc2O1)OC(=O)CC3 | 42 | 28 |
| O=C(COC(=O)C(O)c1ccccc1)NC12CC3CC(CC(C3)C1)C2 (configuration not stated) | 6 | 3 |
| Cc1noc(C)c1COc1cccc(C(=O)Nc2ccccc2)c1 | 8 | 2 |
| CC(Nc1ccc2c(c1)OCCO2)C(=O)N1c2ccccc2CC1C (configuration not stated) | 40 | 4 |
| OCCNc1nc2ccccc2n1CN1CC=C(c2ccccc2)CC1 | -4 | 3 |
| N#CCSc1nc2cc(Cl)ccc2n1Cc1ccccc1 | 22 | 14 |
| c1ccc2sc(CSc3nc4ccccc4s3)nc2c1 | 6 | -1 |
| CSc1cccc(NC(=O)c2ccc3c(c2)NC(=O)CS3)c1 | 8 | 5 |
| CC(C)(C)CC(=O)Nc1ccc(-c2nnc3n2CCCCC3)cc1 | 1 | 3 |
| FC(F)(F)c1cccc(CN2CCNCC2)c1 | 9 | -1 |
| O=C1c2ccccc2S(=O)(=O)NN1Cc1nnc(-c2ccccc2Br)o1 | 2 | 5 |
| CN(C)S(=O)(=O)c1ccc2oc(SCC(=O)O)nc2c1 | 65 | 36 |
| C=CCn1c(SCc2c(C)noc2C)nc2scc(-c3cccs3)c2c1=O | 20 | 2 |
| CC1CC(C)CN(c2ncnc3c2cnn3-c2ccc(Cl)cc2)C1 (configuration not stated) | 4 | -3 |
| CCNC(=O)/C(C#N)=C/C1=Cc2ccccc2OC1 | 20 | 5 |
| Cc1ccc(N(CC(=O)N2CCc3ccccc32)C2=NC(=O)CS2)cc1 | 10 | 2 |
| C=CCn1c(SC(C)C(N)=O)nnc1-c1ccc(OC)cc1 (configuration not stated) | 0 | 4 |
| O=C(Nc1ccc2c(c1)OCO2)C1CCCC1 | 4 | 1 |
| COc1ccc(CCNC(=O)c2ccc3c(c2)S(=O)(=O)N=C2CCCCCN23)cc1OC | 22 | 9 |
| Cc1ccc(-n2c(=O)c3ccccc3n3c(SCC(=O)N(C(C)C)C(C)C)nnc23)c(C)c1 | 14 | 13 |

Some of the entries so far, with two lines to a compound:
The line under a structure holds: BmaI1, BmaI1 counterscreen
COC(=O)c1ccc(CSc2ccc(S(=O)(=O)N3CCCC3)cn2)o1
    22, 4
Cc1noc(N)c1C(=O)OCc1ccc(COC(=O)c2c(C)noc2N)cc1
    22, 7

Further records:
| smiles | BmaI1 | BmaI1 counterscreen |
| --- | --- | --- |
| Cc1cc(C)n2nc(C(=O)NCc3ccc4c(c3)OCO4)nc2n1 | 2 | 6 |
| O=C(Cc1c(F)cccc1Cl)OCN1C(=O)c2ccccc2C1=O | 16 | 16 |
| S=C(c1ccc(-c2ccccc2)o1)N1CCN(c2ccccc2)CC1 | 98* | 14* |
| O=C1CS/C(=N\S(=O)(=O)c2ccccc2)N1Cc1ccccc1 | 20 | 10 |
| NC(=O)COC(=O)Cc1cccc2ccccc12 | -2 | 2 |
| CN(C(=O)COC(=O)c1cc(=O)c2ccccc2o1)c1ccccc1 | 4 | 0 |
| C=CCn1c(SCC(=O)c2ccc3c(c2)NC(=O)CO3)nc2cc(Cl)ccc2c1=O | -7 | -6 |
| O=C(COC(=O)c1nc(Cl)ccc1Cl)c1ccc2[nH]c(=O)[nH]c2c1 | 16 | 7 |
| CN(C)S(=O)(=O)c1ccc(=O)n(CC(=O)N2CCSC2c2ccccc2F)c1 (configuration not stated) | 10 | 0 |
| CC1CCN(CC(=O)c2cccc(C(F)(F)F)c2)CC1 | -12 | -3 |
| Cc1ccc(-c2nnc(SCC(=O)NCC3COc4ccccc4O3)o2)cc1 (configuration not stated) | 8 | 4 |
| Cc1c(C#N)c(NC(=O)CSc2nnc(-c3ccccc3)n2-c2ccc(Cl)cc2)n(CC2CCCO2)c1C (configuration not stated) | 34 | 5 |
| O=c1[nH]c2ccccc2nc1-c1c[nH]n(-c2ccccc2)c1=O | -8 | -10 |
